Assay outcomes from PubChem.
MgrA DNA FP: S. aureus MgrA-DNA binding modulation. fluorescence polarization. inhibition, %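 (about 10 µg/mL by stock and volumes)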. AID 602314. 0.13% of 84,000 active;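 active = above 50% in either of two replicates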;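 note: 0% = protein plus DNA without compound and 100% = DNA alone without protein; higher means less MgrA bound to DNA so lower polarization; one replicate is shown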
Sa helicase inh: S. aureus DNA helicase inhibition; purified S. aureus helicase, fluorescence unwinding assay; about half of the hits fall short of the stated cut; inhibition, %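 (tested at about 80 µM)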; 0.05% of 120,000 active;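 active = both duplicates at 50% or more, or one of them with a favoured structure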;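 note: 0% = mean of negative control wells and 100% = mean of positive control wells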
The depositor's hits bear a star; i = inactive; / = not tested or not shown; & = joins results of further samples.

Below each SMILES – MgrA DNA FP | Sa helicase inh
COC(=O)c1cc(C#N)c(SCC#N)nc1C(OC)OC
  -2.1 | /
CCOC(=O)N1CCN(C(=O)C(NS(=O)(=O)c2cccc3nsnc23)c2ccccc2)CC1 (stereo unspecified)
  / | 3
CCCn1c(=O)c2ccccc2n2c(SCC(=O)/C(C#N)=C(\C)N)nnc12
  / | -6
Cc1nc(-c2c(C(F)(F)F)oc3cc(O)ccc3c2=O)cs1
  -0.3 | 16
ONC=NCc1ccccc1OC(F)(F)F
  / | 23
Cc1ccc(C(=O)N2CCC(C(=O)NC3CCCC3)CC2)cc1
  1.1 | -18
CCn1c(COC(=O)/C=C/c2ccc(Br)o2)nc2cc(S(=O)(=O)N(C)C)ccc21
  / | 3
Cc1ccccc1OCc1nc2ccccc2c(=O)n1N
  -0.6 | 8
CCOC(=O)C1CCCCN1C(=O)CCc1c(C)nc2cc(-c3ccc(OC)cc3OC)nn2c1C (stereo unspecified)
  / | 12
O=C(COC(=O)c1ccccn1)NC12CC3CC(CC(C3)C1)C2
  -3.7 | 10
CCOc1ccc2nc(-n3c(C)ccc3C)sc2c1
  3.0 | -9
Cc1nsc(N)c1C(=O)OCc1ccc(C#N)cc1
  / | -15
COc1cccc(CNC(=O)c2cc(C(C)C)[nH]n2)c1
  / | 6
CC(C)C(NC(=O)c1c(F)cccc1F)C(=O)N1CCN(S(=O)(=O)c2ccc(F)cc2)CC1 (stereo unspecified)
  / | 15
O=C(Cc1noc2ccccc12)NCc1cccc(Cl)c1
  -0.2 | /
CC(C)(C)NC(=O)CN1C(=O)S/C(=C\c2ccccc2)C1=O
  / | 11
CN(CCc1ccccn1)S(=O)(=O)c1cccc(Cl)c1
  0.2 | /
COC(=O)c1cc(S(=O)(=O)NCCc2ccccc2)cn1C
  1.5 | 11
N#CC(/C(=N/S(=O)(=O)c1cccs1)c1ccccc1)c1nnc(N2CCOCC2)n1-c1ccccc1 (stereo unspecified)
  / | 10
Cc1cc(C)nc(SCC(=O)OCC(=O)N2CCN(c3ccccc3)CC2)n1
  / | 9
O=C(OC(c1ccc2c(c1)OCO2)c1nccc2ccccc12)c1ccco1 (stereo unspecified)
  / | 9
CN(C)CCCN1c2ccccc2CCc2ccccc21
  -0.2&1.0 | /
Cc1ccccc1N(CC(=O)Nc1sccc1C#N)S(C)(=O)=O
  / | -11
Cn1c(=O)c2sccc2n2c(CCCC(=O)Nc3ccccc3)nnc12
  -0.3 | 1
CCCCN(Cc1ccco1)C(=O)c1cc2c(=O)oc3ccc(C)cc3c2s1
  0.8 | 17
Nc1cc(-c2ccc(I)cc2)[nH]n1
  1.6 | 2
Cc1cccc2cc(CN(C(=O)C3CC3)C3CCCC3)c3nnnn3c12
  -0.1 | 5
O=C(O)c1ccc2c3c(cccc13)CC2
  / | 7
Cc1ccn2c(CO)c(-c3ccccc3)nc2c1
  2.4 | /
CCOc1cccc(/C=C2/SC(=Nc3ccccc3Cl)NC2=O)c1O
  8.4 | /
COC(=O)C1=C(C)NC2=C(C(=O)CC(c3ccccc3)C2)C1c1cc(Br)c(O)c(OC)c1 (stereo unspecified)
  -0.9 | /
O=C(CC1CCCCC1)N1CCOCC1
  -0.7 | -3
Cc1nc2c(-c3ccccc3)c(C)nn2c(C)c1CC(=O)NC(C)CCc1ccco1 (stereo unspecified)
  / | -3
O=C(NC1CC1)c1ccc2c(c1)N(Cc1ccccc1)C(=O)CS2=O (stereo unspecified)
  / | 14
CC(=O)SC1CC(=O)N(c2ccc(C(C)(C)C)cc2)C1=O (stereo unspecified)
  1.4 | /
CCOC(=O)c1ncoc1-c1ccc(Cl)cc1Cl
  0.5 | /
COC(=O)C(OC)c1cc(C(C)(C)C)c(O)c(C(C)(C)C)c1 (stereo unspecified)
  -3.5 | /
CSc1ccc(/C=C2/SC(=O)N(CNc3ccccc3)C2=O)cc1
  3.7 | 3
COc1cccc2c1oc(=O)c1c(NC(C)=O)nc(-c3ccccc3)nc12
  / | -12
COC(=O)c1c(C)nc(C)c2c(=O)oc3ccccc3c12
  -1.6 | -4

Four entries drawn at random from the list so far, as already listed:
Below each SMILES – MgrA DNA FP | Sa helicase inh
O=C(CC1CCCCC1)N1CCOCC1
  -0.7 | -3
Cc1nc2c(-c3ccccc3)c(C)nn2c(C)c1CC(=O)NC(C)CCc1ccco1 (stereo unspecified)
  / | -3
COC(=O)C(OC)c1cc(C(C)(C)C)c(O)c(C(C)(C)C)c1 (stereo unspecified)
  -3.5 | /
CCCCN(Cc1ccco1)C(=O)c1cc2c(=O)oc3ccc(C)cc3c2s1
  0.8 | 17

(more compounds)
Below each SMILES – MgrA DNA FP | Sa helicase inh
O=C(CSc1nc2sccc2c(=O)n1-c1ccccc1)N1CCCC1
  / | 9
CC(C)c1nn2cc(-c3ccc(Br)cc3)nc2s1
  / | 10
CCCC(C)C1C(C#N)=C(N)Oc2cc(N)ccc21 (stereo unspecified)
  / | 9
Cc1nn(CC(=O)NC2CCCC(C)C2C)c(=O)c2cc3cc(F)ccc3n12 (stereo unspecified)
  / | 26
CCOc1cc(/C=C2/SC(=S)N(CC(=O)O)C2=O)ccc1Oc1ccc([N+](=O)[O-])cc1[N+](=O)[O-]
  13 | /
O=C(CCS(=O)(=O)c1ccccc1)Nc1ccc2c(c1)C(=O)NC2=O
  / | 0
Cc1ccc(Cn2ccsc2=NC(=O)C2(C#N)CCCC2)cc1
  / | -4
CCN(CC)C(=O)c1ccccc1NC(=O)c1cccc(S(=O)(=O)N(CC)CC)c1
  0.9 | 12
COc1ccc(OCC(O)CNC(C)C)cc1 (stereo unspecified)
  -0.7 | /
CC(=O)NC(C)C1COc2ccccc2O1 (stereo unspecified)
  1.4 | 8
Cc1cc(N2CCC(C(N)=O)CC2)nc2cc(O)ccc12
  / | 15
CCOc1ccc(NC(=S)N2CCSC2c2ccc(C#CC(C)(C)O)s2)cc1 (stereo unspecified)
  0.2 | -10
CC(C)(C)OC(=O)NCC(=O)NNC(=S)Nc1ccccc1
  -1.5 | /
CCOc1ccc(N=c2scc(-c3ccc(S(=O)(=O)N4CCCC4)cc3)n2CC)cc1
  2.6 | 7
NCCSc1ncc(-c2ccc(Cl)cc2)[nH]1
  / | 2
CCOC(=O)c1cnn(-c2ccccc2)c1NC(=O)CN1CCOCC1
  / | 9
Cc1ccc(CNC(=O)COc2nc3ccccc3nc2N2CCOCC2)cc1
  / | 6
O=c1oc2cc(Br)ccc2n1CO
  4.2 | 13
CCOc1cc(CNCc2ccc(CN3CCOCC3)cc2)ccc1OCC(=O)N(C)C
  / | -18
COc1ccc(-c2nn(CN(CC(C)C)CC(C)C)c(=S)n2CC2CCCO2)cc1 (stereo unspecified)
  / | 1
O=C(Cc1ccccc1)Nc1c2c(nn1-c1ccccc1)CS(=O)C2 (stereo unspecified)
  / | 19
COc1ccccc1-c1csc(Nc2cccnc2)n1
  -2.6 | /
CSc1ccc(C(N)CC(=O)O)cc1 (stereo unspecified)
  1.8 | /
CN(C(=O)CSc1nc(N)cc(=O)[nH]1)c1ccccc1
  -0.8 | 1
CNc1ncnc2c1ncn2[C@@H]1O[C@H](CO)[C@@H](O)[C@H]1O
  3.7 | /
CCc1c(O)n2c(nc3ccccc32)[nH]c1=O
  / | -103
CCOC(=O)c1c(CC(C)C)csc1NC(C)=O
  0.6 | -4
CS(=O)(=O)Nc1ccccc1-c1nc2ccccc2[nH]c1=O
  -1.1 | -1
O=C(/C=C/c1cccc2ccccc12)N1CCCCC1
  -0.2 | /
C=CCn1c(SCc2ccc(Cl)cc2)nc2cc(C(=O)N3CCC(C(N)=O)CC3)ccc2c1=O
  -1.2 | 1
NNC(=S)NC12CC3CC(CC(C3)C1)C2
  4.4 | -8
O=C(NCc1ccco1)c1ccc2c(c1)CCN2S(=O)(=O)c1ccccc1
  / | 14
CCCCn1c(O)c(C#N)c(C)cc1=O
  -3.6 | /
COCCCN=CC1=C(O)CC(C)(C)CC1=O
  / | 26
NC(=S)CC(=O)Nc1ccccc1
  / | 0
CS(=O)(=O)Nc1ccc(N2CCN(c3ccc(C(F)(F)F)cn3)CC2)nc1
  -1.2 | /
O=c1c2c(nc3nc(NCc4cccs4)[nH]n13)CCCC2
  / | -13
COc1cc(CN2CCN(Cc3ccc4ccccc4c3)CC2)cc(OC)c1OC
  / | -16
CCCOc1ccc(CC(=O)NC(C)CC)cc1OC (stereo unspecified)
  -0.6 | 6
Cc1ccc(=O)n(Cc2ccc(Cl)c(Cl)c2)n1
  -0.8 | /

Molecules listed so far containing bromine (four):
Below each SMILES – MgrA DNA FP | Sa helicase inh
CCn1c(COC(=O)/C=C/c2ccc(Br)o2)nc2cc(S(=O)(=O)N(C)C)ccc21
  / | 3
COC(=O)C1=C(C)NC2=C(C(=O)CC(c3ccccc3)C2)C1c1cc(Br)c(O)c(OC)c1 (stereo unspecified)
  -0.9 | /
CC(C)c1nn2cc(-c3ccc(Br)cc3)nc2s1
  / | 10
O=c1oc2cc(Br)ccc2n1CO
  4.2 | 13

Next results:
Below each SMILES – MgrA DNA FP | Sa helicase inh
COc1cc2[nH]c(=S)nc(NCCc3ccc(S(N)(=O)=O)cc3)c2cc1OC
  / | 25
Oc1ccccc1N1CCN(C(=S)NCc2ccccc2)CC1
  1.6 | 8
CSc1n[nH]c(=O)c2cc(C)nn12
  -1.0 | /
O=C(Cc1ccccc1)Nc1nc2ccccc2[nH]1
  / | 10
c1coc(CNc2nc(N3CCOCC3)nc(N3CCOCC3)n2)c1
  -1.1 | /
CN(/N=C/c1sc2ccccc2c1O)c1ccccc1
  3.6 | -9
CCOC(=O)c1c(CC(C#N)(c2ccccc2)c2ccccc2)n(C)c2cc(Br)c(OC)cc12
  -1.4 | /
CCCCn1c(SCC(=O)NC(=O)NC2CCCC2)nc2ccccc2c1=O
  / | 8
CCN1CCN(c2cc3c(nn2)Oc2ccccc2N3C)CC1
  / | 17
N#CCc1cccc(OCc2ccccc2)c1
  -6.2 | /
CCCn1c(SCC(=O)N2N=C(c3ccccc3)CC2c2ccc(OC)cc2)n[nH]c1=O (stereo unspecified)
  / | -3
O/N=C(/Cc1ccc2ccccc2n1)c1ccccc1
  -2.7 | 10
Cc1nc(C)c(-c2nnc(-c3ccc(C(F)(F)F)cc3)o2)s1
  -2.9 | /
CN(C(=O)COC(=O)C1(c2ccc(Cl)cc2)CC1)C1CCS(=O)(=O)C1 (stereo unspecified)
  / | 2
CCOC(=O)c1ccc(-n2c(C)cc(C=NCc3cn4ccsc4n3)c2C)cc1
  / | -12
Cc1[nH]c2ccccc2c1SCc1nnc(SCC(=O)Nc2cccc(C(F)(F)F)c2)n1C
  3.1 | /
Cc1nn(-c2ccccc2)cc1/C=N/n1c(-c2ccncc2)n[nH]c1=S
  / | 18
O=C(CNC(=O)c1ccccc1F)OCc1ccccc1
  0.0 | -16
Cc1c(CN2CCC(N3CCCCC3)CC2)sc2ccccc12
  / | -22
Cc1ccc(S(=O)(=O)N2CCSc3ccccc32)cc1
  -0.6 | /
COc1ccc(N2CC(C(N)=O)CC2=O)cc1 (stereo unspecified)
  -3.9 | 0
CN(C)c1ccc(/C=C2\Cc3ccccc3C2=O)cc1
  10 | i
Cc1cc(C)c(NC(=O)COC(=O)C2CCC(=O)N2)c(C)c1 (stereo unspecified)
  0.5 | -15
O=C(NCCCn1ccnc1)c1ccccc1Cl
  2.2 | 2
COC(=O)C1=C(C)N(C2CCCCC2)C(=O)/C1=C\c1cccs1
  1.8 | 9
COc1ccc(NC(=O)Cn2cnc3c(nnn3-c3cccc(Cl)c3)c2=O)c(OC)c1
  / | 5
CCOc1ccc(CO[C@@H]2O[C@H](CO)[C@@H](O)[C@H](O)[C@H]2NC(C)=O)cc1OC
  -0.5 | 15
COC(=O)c1cc(Br)c(O)c(Br)c1
  / | 1
O=C(CN1CCCCC1)N=Nc1c(O)[nH]c2ccccc12
  0.0 | 15
COc1ccc(OC)c(C(=O)c2coc3c2cc(O)c2ccccc23)c1
  -2.5 | -2
CCOc1ccc(NC2SC(=O)N(CCC(=O)O)C2=O)cc1 (stereo unspecified)
  / | -18
CCSc1nc(-c2ccc(OC)cc2)n(-c2nc3ccccc3s2)n1
  / | -13
Cc1ccsc1/C=N/N1CCOCC1
  / | -2
Cn1c(=O)cc(SCC(=O)N2CCN(c3cccc(Cl)c3)CC2)c2ccccc21
  -0.7 | 12
CC1N(C)c2ccc(C=C(C#N)C#N)cc2C1(C)C (stereo unspecified)
  / | -283
COc1cccc(OCC(=O)NCC2CCCO2)c1 (stereo unspecified)
  -2.5 | -9
O=C(Cc1coc2cc(O)ccc12)OCc1ccccc1C(F)(F)F
  / | 20
C=CCC(O)(c1ccc(O)cc1)C(CN1CCCCC1)c1ccccc1 (stereo unspecified)
  / | 11
N#CCOC(=O)c1cnc(Cl)c(Cl)c1
  / | 1
O=C(Nc1ccc(OC(F)(F)F)cc1)c1ccc(=O)[nH]c1
  / | 8
CCOC(=O)C1CCN(Cc2nc3sc4c(c3c(=O)[nH]2)CCCC4)CC1
  / | -5
CCCNC(=O)c1ccccc1Br
  -1.1 | 19
O=C(O)c1c(N2CCCCC2)ccc([N+](=O)[O-])c1N1CCCCC1
  1.0 | /
COCCCN=C1NC(=O)C(CC(=O)Nc2ccc(Cl)cc2)S1 (stereo unspecified)
  / | -16
O=C(/C=C/c1ccc2c(c1)OCO2)N1CCCCC1
  -2.7 | -2
CCN(CC)S(=O)(=O)c1ccc(NC(=O)Cc2ccc3c(c2)OCCO3)cc1
  / | -8
O=C(O)CCC(=O)OCc1ccccc1
  -1.2 | -14
O=Nc1c(O)[nH]c2cc3c(cc12)OCCO3
  / | 4
Cc1ccc2oc(C(=O)Nc3nnc(C(C)C)s3)c(C)c2c1
  / | 19
CCOC(=O)c1ccc(NC(=O)N2C3CCC2CC(NC(=O)NC24CC5CC(CC(C5)C2)C4)C3)cc1 (stereo unspecified)
  1.6 | -4
O=C(COCc1cc(-c2cccs2)on1)NC1CCCc2ccccc21 (stereo unspecified)
  / | 20

A portion of the library, so the mix of outcomes need not match the whole.
